# DUX4 inh: DUX4-mediated transcription inhibition; 293T-iDUX4 ZSCAN4-Gaussia luciferase reporter, 24 h; stronger effect = lower value; hit rate 0.8% among 37,000; activity change, negative = inhibition, % (no concentration beside the values);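 active = -10% or lower and over 25 points stronger than a control reporter; inconclusive = -10% or lower with a smaller gap; inactive = above -10%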;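 note: 0% = median of neutral control wells and -100% = median of positive control wells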
# DUX4 inh difference: further read-out of DUX4 inh, marked with its call; Gaussia minus Italica difference, %; measured here: selective DUX4 reporter inhibition;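 worked out from the two reporters; negative = selective loss of the DUX4 reporter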
# DUX4 inh control: further read-out of DUX4 inh, marked with its call; activity change, negative = inhibition, %; measured here: Italica tet-on control reporter;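 0 = neutral control and -100 = positive control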
# Starred values were filed as active, the others as inactive; ? = inconclusive; . = not tested or not shown; & = joins results of further samples. The list is partial, so the mix of outcomes need not match the whole.
SMILES,DUX4 inh,DUX4 inh difference,DUX4 inh control
CN1[C@@H]2Cn3c(ccc(-c4cccnc4)c3=O)[C@H]1[C@@H](C(=O)N1CCC(Cc3ccccc3)CC1)[C@@H]2CO,-5,-4,-0.5
CNC[C@@H]1OCCCC[C@@H](C)Oc2ccc(NC(=O)Nc3ccc(OC)cc3)cc2C(=O)N([C@H](C)CO)C[C@@H]1C,-4,-7,2.5
C[C@H](CO)N1C[C@H](C)[C@@H](CN(C)Cc2ccncc2)Oc2c(cccc2N(C)C)C1=O,1,0,1.1
O=C(c1cccc(F)c1)N1CC(=O)N2[C@H](CO)[C@H](c3ccc(-c4ccccc4)cc3)[C@@H]2C1,5,3,2.0
C[C@@H]1CCCCO[C@H](CN(C)C(=O)Nc2ccc(F)cc2)[C@H](C)CN([C@@H](C)CO)C(=O)c2cc(NC(=O)NC3CCCCC3)ccc2O1,1,3,-2.2
CN(C)C(=O)c1cccc(-c2ccc([C@@H]3[C@H]4CN(S(C)(=O)=O)CCCCN4[C@H]3CO)cc2)c1,13,0,14
COc1ccc(NC(=O)N(C)C[C@H]2OCc3cn(nn3)CCCC(=O)N([C@@H](C)CO)C[C@H]2C)c(OC)c1,1,0,1.2
CC(C)C[C@@H]1COCc2cn(nn2)CC[C@H](Cc2cccc(Cl)c2)C(=O)N1,1,-3,3.2
O=C(C[C@@H]1CC[C@H]2[C@@H](COC[C@@H](O)CN2C(=O)c2ccncc2)O1)NC1CCC1,13,6,6.8
O=C(C[C@H]1C[C@@H]2c3cc(NC(=O)c4ccc5c(c4)OCO5)ccc3O[C@@H]2[C@H](CO)O1)NCc1ccc(Cl)cc1,-3,3,-5.8
C[C@H](CO)N1C[C@H](C)[C@@H](CN(C)Cc2ccc3c(c2)OCO3)Oc2cc(Br)ccc2S1(=O)=O,-6,-3,-3.5
COc1ccc(NC(=O)Nc2ccc3c(c2)[C@H]2C[C@@H](CC(=O)NCc4ccc5c(c4)OCO5)O[C@@H](CO)[C@H]2O3)cc1,0,-2,1.6
O=C(C[C@@H]1CC[C@@H]2[C@H](COC[C@H](O)CN2C(=O)c2ccc3c(c2)OCO3)O1)NC1CCC1,8,8,0.4
CNC[C@H]1Oc2ccc(NS(=O)(=O)c3ccc(Cl)cc3)cc2CC(=O)N([C@H](C)CO)C[C@H]1C,-2,-2,-0.6
CC(=O)N1CC(=O)N2[C@H](CO)[C@H](c3ccc(C#CC(C)C)cc3)[C@H]2C1,14,4,10
COc1ccc2c3c(n(C)c2c1)[C@@H](CO)N(Cc1cccnc1)CC31CN(Cc2cccnc2)C1,11,2,9.5
C/C=C/c1ccc([C@@H]2[C@@H](CO)N(C(C)=O)C23CN(C(=O)c2ccc(F)cc2)C3)cc1,-7,-6,-0.2
COc1ccccc1C#Cc1ccc([C@@H]2[C@@H](CO)N(C(=O)C3CCC3)[C@H]2C#N)cc1,-1,-1,-0.1
C[C@@H](NC(=O)[C@H]1[C@H](CO)[C@H]2Cn3c(cccc3=O)[C@H]2N1S(C)(=O)=O)c1ccccc1,-7,-2,-4.4
Cn1cnc(S(=O)(=O)N2CCCCN3[C@H](CO)[C@H](c4ccc(-c5ccccc5F)cc4)[C@@H]3C2)c1,6,2,4.3
COc1ccc2c3c(n(C)c2c1)[C@H](CO)NCC31CN(Cc2ccccc2F)C1,?,.,.
COc1ccccc1-c1ccc2n(c1=O)C[C@@H]1[C@@H](CO)[C@H](C(=O)N(C)C)N(C(=O)c3cccnc3)[C@H]21,-3,-6,2.9
CCS(=O)(=O)N1[C@@H](CO)[C@H](c2ccccc2)C12CN(C(=O)C1CCCC1)C2,10,5,5.5
CC(C)NC(=O)Nc1ccc2c(c1)C(=O)N([C@H](C)CO)C[C@@H](C)[C@@H](CN(C)C(=O)C1CCCCC1)OCCCC[C@H](C)O2,-4,-3,-1.0
O=C(C[C@H]1C[C@@H]2c3cc(NC(=O)CC4CC4)ccc3O[C@@H]2[C@H](CO)O1)NCC(F)(F)F,8,11,-3.7
# Next structures.
SMILES,DUX4 inh,DUX4 inh difference,DUX4 inh control
O=C(C[C@@H]1CC[C@@H]2[C@H](COC[C@H](O)CN2C(=O)Nc2ccc(Cl)c(Cl)c2)O1)NCc1ccccc1,5,7,-2.2
CN(C)CC(=O)Nc1ccc2c(c1)[C@H]1C[C@H](CC(=O)NCc3cc(F)ccc3F)O[C@H](CO)[C@H]1O2,3,-4,6.8
C[C@@H]1CN([C@H](C)CO)C(=O)c2c(c3ccccc3n2C)-c2ccccc2CO[C@@H]1CN(C)Cc1cccc(O)c1,?,.,.
C[C@@H]1CCCCO[C@@H](CN(C)C(=O)c2ccncc2)[C@@H](C)CN([C@H](C)CO)C(=O)c2cc(NS(=O)(=O)c3cn(C)cn3)ccc2O1,4,2,2.0
CN1C(=O)c2cc(NS(C)(=O)=O)ccc2OC[C@H]2O[C@H](CC(=O)N3CCOCC3)CC[C@@H]21,-5,-5,0.6
COCCN(C[C@H]1[C@H](c2ccccc2)[C@H](CO)N1C(C)=O)C(=O)c1ccncc1,0,0,0.7
N#C[C@@H]1[C@@H](c2ccccc2-c2cccc(F)c2)[C@H](CO)N1C(=O)C1CC1,3,10,-7.5
C[C@@H]1CCCCO[C@@H](CN(C)Cc2ccc(C(F)(F)F)cc2)[C@H](C)CN([C@@H](C)CO)C(=O)c2cc(NC(=O)c3ccccc3)ccc2O1,4,2,1.6
CCC(=O)NC[C@@H]1[C@@H](c2ccc(C3=CCCC3)cc2)[C@@H](CO)N1C(=O)CN(C)C,4,2,1.1
COCCNC(=O)C[C@@H]1C[C@H]2c3cc(NC(=O)CC4CC4)ccc3O[C@H]2[C@@H](CO)O1,9,7,2.7
C[C@H](CO)N1C[C@H](C)[C@H](CN(C)C(=O)c2ccncc2)OCCCC[C@H](C)Oc2ccc(NS(=O)(=O)c3cccs3)cc2C1=O,-2,-7,4.6
CO[C@@H]1CN(C)C(=O)c2ccc(NC(=O)C3CCOCC3)cc2OC[C@H](C)N(C)C[C@@H]1C,6,1,5.2
COc1ccccc1C#Cc1ccc([C@@H]2[C@@H](C#N)N(C(=O)C3CCC3)[C@H]2CO)cc1,?,.,.
CN(C)CC(=O)N1[C@@H]2c3ccc(-c4ccccc4)c(=O)n3C[C@H]1[C@H](CO)[C@H]2C(=O)N1CCOCC1,6,1,5.2
COc1ccccc1CN1C[C@@H](C)[C@H](OC)CN(C)C(=O)c2cc(NC(=O)Nc3ccccc3OC)ccc2OC[C@H]1C,?,.,.
O=C(C[C@@H]1CC[C@@H]2[C@H](COC[C@@H](O)CN2Cc2ccc3c(c2)OCO3)O1)N1CCOCC1,1,-2,3.6
COc1ccccc1NC(=O)N(C)C[C@H]1OCc2cnnn2CCCC(=O)N([C@@H](C)CO)C[C@@H]1C,2,-1,3.6
C[C@H](CO)N1C[C@H](C)[C@@H](CN(C)C(=O)Nc2cccc3ccccc23)Oc2c(NC(=O)C3CCOCC3)cccc2C1=O,-3,-3,0.2
C[C@@H]1CN([C@@H](C)CO)C(=O)CCCn2nncc2CO[C@H]1CN(C)C(=O)NC1CCCC1,1,0,1.5
Cc1ccccc1-c1ccc(C2[C@H]3CNC[C@@H]2N3S(=O)(=O)c2ccc(F)cc2)cc1 (stereo partly specified),2,1,0.3
CCCNC(=O)N[C@H]1CC[C@@H](CC(=O)NC2CCC2)O[C@@H]1CO,4,4,0.5
CNC[C@H]1Oc2ccc(N)cc2CC(=O)N([C@H](C)CO)C[C@H]1C,0,-4,4.1
CN1C(=O)c2cc(NC(=O)c3ccc(F)cc3)ccc2OC[C@@H]2O[C@H](CC(=O)N3CCOCC3)CC[C@@H]21,1,1,0.0
Cc1ccc(S(=O)(=O)Nc2ccc3c(c2)C(=O)N([C@H](C)CO)C[C@H](C)[C@@H](CN(C)S(C)(=O)=O)O3)cc1,5,5,0.5
O=C(C[C@H]1C=C[C@@H](NC(=O)c2ccccn2)[C@H](CO)O1)NCc1cccc(F)c1,4,8,-4.0

# Sorted by SMILES length (smallest number first): part of the list above.
SMILES,DUX4 inh,DUX4 inh difference,DUX4 inh control
CNC[C@H]1Oc2ccc(N)cc2CC(=O)N([C@H](C)CO)C[C@H]1C,0,-4,4.1
CC(C)C[C@@H]1COCc2cn(nn2)CC[C@H](Cc2cccc(Cl)c2)C(=O)N1,1,-3,3.2
Cc1ccccc1-c1ccc(C2[C@H]3CNC[C@@H]2N3S(=O)(=O)c2ccc(F)cc2)cc1 (stereo partly specified),2,1,0.3
COCCNC(=O)C[C@@H]1C[C@H]2c3cc(NC(=O)CC4CC4)ccc3O[C@H]2[C@@H](CO)O1,9,7,2.7
C/C=C/c1ccc([C@@H]2[C@@H](CO)N(C(C)=O)C23CN(C(=O)c2ccc(F)cc2)C3)cc1,-7,-6,-0.2
O=C(C[C@@H]1CC[C@@H]2[C@H](COC[C@@H](O)CN2Cc2ccc3c(c2)OCO3)O1)N1CCOCC1,1,-2,3.6
O=C(C[C@H]1C[C@@H]2c3cc(NC(=O)CC4CC4)ccc3O[C@@H]2[C@H](CO)O1)NCC(F)(F)F,8,11,-3.7
CN(C)CC(=O)N1[C@@H]2c3ccc(-c4ccccc4)c(=O)n3C[C@H]1[C@H](CO)[C@H]2C(=O)N1CCOCC1,6,1,5.2
COc1ccccc1-c1ccc2n(c1=O)C[C@@H]1[C@@H](CO)[C@H](C(=O)N(C)C)N(C(=O)c3cccnc3)[C@H]21,-3,-6,2.9
COc1ccc(NC(=O)Nc2ccc3c(c2)[C@H]2C[C@@H](CC(=O)NCc4ccc5c(c4)OCO5)O[C@@H](CO)[C@H]2O3)cc1,0,-2,1.6
C[C@H](CO)N1C[C@H](C)[C@H](CN(C)C(=O)c2ccncc2)OCCCC[C@H](C)Oc2ccc(NS(=O)(=O)c3cccs3)cc2C1=O,-2,-7,4.6
C[C@@H]1CCCCO[C@@H](CN(C)Cc2ccc(C(F)(F)F)cc2)[C@H](C)CN([C@@H](C)CO)C(=O)c2cc(NC(=O)c3ccccc3)ccc2O1,4,2,1.6

# Later entries.
SMILES,DUX4 inh,DUX4 inh difference,DUX4 inh control
COc1ccccc1NC(=O)N1C[C@@H](O)COC[C@H]2O[C@H](CC(=O)NCCc3ccccc3)CC[C@@H]21,14,7,6.6
COc1ccc2c3c([nH]c2c1)[C@H](CO)N(C(=O)CN1CCOCC1)CC31CN(Cc2ccccc2)C1,20,8,12
O=C(C1CC1)N1C[C@H]2[C@@H](c3ccccc31)[C@@H](CO)N2C(=O)c1cccc(F)c1,-2,-2,-0.1
O=C(N[C@H]1CC[C@H](CCNS(=O)(=O)c2ccccc2Cl)O[C@H]1CO)c1ccc(F)cc1,1,1,0.3
C[C@@H](NC(=O)C[C@@H]1CC[C@@H]2[C@H](COC[C@H](O)CN2C(=O)Nc2cccc(Cl)c2)O1)c1ccccc1,4,3,1.8
CN1C(=O)c2cc(NC(=O)C3CCCC3)ccc2OC[C@H]2O[C@@H](CC(=O)NCC(F)(F)F)CC[C@H]21,1,-3,3.7
O=C(N[C@H]1C=C[C@@H](CC(=O)N2CCCCC2)O[C@H]1CO)c1ccc2c(c1)OCO2,6,-2,7.3
O=C(Nc1cc(F)ccc1F)N[C@H]1CC[C@@H](CCn2cc(C3CCCCC3)nn2)O[C@@H]1CO,-7,4,-11
COc1ccc(S(=O)(=O)Nc2ccc3c(c2)[C@H]2C[C@@H](CC(=O)N(C)C)O[C@@H](CO)[C@H]2O3)cc1,6,4,2.1
CN1CCCCN2[C@@H](CO)[C@H](c3ccc(C#Cc4ccccc4F)cc3)[C@@H]2C1,2,-1,3.0
O=C(C[C@@H]1CC[C@@H]2[C@H](COC[C@@H](O)CN2Cc2ccc3c(c2)OCO3)O1)Nc1ccc(-c2ccccc2)cc1,?,.,.
O=C(Nc1ccc(Cl)cc1)N1[C@@H]2CNC[C@H]1C2c1ccc(-c2ccccc2)cc1 (stereo partly specified),10&18,6&11,3.8&7.1
O=C(C[C@H]1CC[C@@H](NC(=O)Nc2cc(F)ccc2F)[C@H](CO)O1)Nc1ccc(-c2ccccc2)cc1,?,.,.
C[C@@H](O)C#Cc1ccc2c(c1)O[C@H](CN(C)C(=O)Cc1ccccn1)[C@@H](C)CN([C@@H](C)CO)S2(=O)=O,4,2,2.2
CO[C@H]1CN(C)C(=O)c2cc(NC(=O)Nc3c(C)noc3C)ccc2OC[C@@H](C)N(CC2CC2)C[C@@H]1C,-3,-8,4.9
CO[C@H]1CN(C)C(=O)c2cc(NC(=O)Nc3ccc(Cl)c(Cl)c3)ccc2OC[C@H](C)NC[C@H]1C,?,5,-12
C[C@H]1CCCCO[C@H](CN(C)C(=O)Nc2ccc(C(F)(F)F)cc2)[C@@H](C)CN([C@@H](C)CO)C(=O)c2cc(N(C)C)ccc2O1,8,11,-2.6
Cc1cc(C(=O)Nc2ccc3c(c2)C(=O)N(C)[C@H]2CC[C@@H](CC(=O)NC4CCCC4)O[C@H]2CO3)no1,-4,-3,-1.6
CO[C@@H](CN(C)C(=O)c1ccc2c(c1)OCO2)[C@H](C)CN([C@@H](C)CO)S(=O)(=O)c1ccccc1,0,-2,2.4
C[C@@H]1CN([C@H](C)CO)C(=O)c2cc(NC(=O)c3ccccc3)ccc2O[C@@H](C)CCCCO[C@H]1CN(C)S(=O)(=O)c1cccs1,9,9,-0.3
O=C(c1ccc2c(c1)OCO2)N1CC2(C1)[C@@H](c1ccccc1)[C@@H](CO)N2C(=O)C1CCCC1,-6,-4,-2.5
Cc1cccc(S(=O)(=O)N(C)C[C@@H]2OCc3ccccc3-c3c(n(C)c4ccccc34)C(=O)N([C@@H](C)CO)C[C@@H]2C)c1,?,.,.
CN(C)C(=O)c1cccc(-c2ccc(C3[C@H]4CNC[C@@H]3N4Cc3ccc4c(c3)OCO4)cc2)c1 (stereo partly specified),8&8,21&-1,-13&9.0
O=C(C[C@@H]1C=C[C@H](NC(=O)C2CCC2)[C@H](CO)O1)NCCCN1CCOCC1,3,4,-1.6
COc1cccc(S(=O)(=O)N(C)C[C@@H]2OCc3ccccc3-c3ccccc3C(=O)N([C@@H](C)CO)C[C@H]2C)c1,8,5,3.1
C[C@@H]1CN([C@@H](C)CO)C(=O)c2cc(-c3ccc(C#N)cc3)cnc2O[C@H]1CN(C)Cc1cccnc1,3,3,0.2
